Screening results from PubChem.
HIV Env fusion = blocks HIV Env-driven cell-cell fusion | HeLa-JRFL Env/CEM21 cell fusion, luciferase | inhibition, % at 12.3 µM | 360,000 tested, 1.1% active;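 active means mean replicate inhibition score of at least 50 and every replicate individually at or above 50; inconclusive means only one of the two criteria met; inactive means mean below 50 and not all replicates reaching 50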;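 further: 0% = plate neutral controls and 100% = maraviroc near 300 nM; one replicate is shown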
MT1-MMP act inh = inhibitors of human MT1-MMP activation | HT1080 RFP-PRO-GFP cells, GFP/RFP ratio fluorescence, overnight; percent of plate control window, DMSO zero | GFP/RFP ratio change, % at 20 µM | 360,000 tested, 0.061% active;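 active means GFP/RFP ratio change of at least 30% with cell ATP level not reduced by more than half and red fluorescence within 50% of control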; further: strong numbers were not always called active
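Assay system – RFP-PRO-GFP reporter HT1080 cells · Compound dosing – single dose of 20 µM compound, 1% DMSO final · Incubation – overnight compound exposure at 37 °C · Measure – GFP/RFP fluorescence ratio · Benchmarks – DMSO wells and RFP-L50D-GFP cells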
MT1-MMP act inh RFP = recorded beside MT1-MMP act inh, whose call it bears; RFP signal change, %; measured here: RFP expression control read;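 0 = vehicle wells; hits needed this value within 50% of zero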
* hit, by the source's call; ? = inconclusive. Some of the compounds tested, so the mix of outcomes need not match the whole.

The line under a structure holds: HIV Env fusion	MT1-MMP act inh	MT1-MMP act inh RFP
1: CC(C)NC(=O)C1(C)CN(S(C)(=O)=O)CC(=O)N1CCOc1ccccc1 (configuration not stated)
→ 26	2	4
2: COc1ccc(C(=O)c2[nH]c(N)c(C(=O)NCCc3c[nH]c4ccccc34)c2-c2ccc(OC)c(OC)c2)cc1
→ 1	-4	-2
3: O=C(NCc1ccccc1)C(c1cccc2ccccc12)n1c(=O)c(-c2ccco2)nc2ccccc21 (configuration not stated)
→ 49	-4	2
4: O=C(NC1CCCCC1)C(c1ccnc2ccccc12)n1c(=O)c(-c2ccccc2)nc2ccccc21 (configuration not stated)
→ 1	2	-2
5: Cc1ccc(NC(=O)C2(C)CCN2Cc2ccccc2OC(F)F)cc1 (configuration not stated)
→ 6	-4	-8
6: CCOc1cc(OCC)cc(C(=O)N2CCC[C@H]2C(=O)N2CCC[C@H]2C(=O)NCc2ccccn2)c1
→ -16	0	4
7: COc1ccccc1-c1ncn(Cc2cccc(-c3ccccc3)c2)c1CC(C)C
→ 13	10	-30
8: COc1cccc(CNC(=O)[C@@H]2CCCN2C(=O)[C@@H]2CCCN2C(=O)c2ccccc2)c1
→ -3	-1	3
9: CC(C)CCCCCCCCCCCCC(=O)NCC(=O)NC1C(C)OC(Nc2ncnc3nc[nH]c23)C(O)C1O (configuration not stated)
→ ?	-53	-35
10: N#Cc1c(-c2ccc(F)cc2)c(-c2ccc(F)cc2)nn(CCO)c1=O
→ 8	-1	-9
11: CCCCC[C@@H](C)N1C[C@@H](COCc2ccccc2)Oc2cc(N3CC[C@@H](N(C)C)C3)ccc2S1(=O)=O
→ 8	7	3
12: O=C1NC[C@H](CCCCN2CCN(Cc3ccccc3)C(=O)C2=O)N(CCc2ccccc2)C1=O
→ -2	2	3
13: Cc1ccc(NC(=O)COC(=O)CN2C(=O)NC3(CCCC3)C2=O)cc1F
→ 3	6	4
14: CCOC(=O)[C@]12CCC=C1N(Cc1cccc3ccccc13)C(=O)[C@H](CC(=O)NCC1CCCCC1)C2
→ -27	-4	-10
15: CCc1nc(SCC(=O)N2CCc3ccccc32)c2oc3ccccc3c2n1
→ 2	2	4
16: Cc1cccc(C(=O)Nc2cc(S(=O)(=O)N3CCOCC3)ccc2N2CCCC2)c1
→ 21	-6	0
17: CC(C)C1C(=O)N(Cc2cn(CCC3OCCO3)nn2)CCS(=O)(=O)N1Cc1ccc(-c2ccc(Cl)cc2)cc1 (configuration not stated)
→ ?	-3	-18
18: COc1ccc(C=O)c(-c2c(-c3ccccc3OC)sc3ccccc23)c1
→ 20	1	1
19: CC(C)(C)NC(=O)C(c1ccc(-c2ccccc2)cc1)n1c(=O)c(-c2cc3ccccc3[nH]2)nc2ccccc21 (configuration not stated)
→ -5	-14	-11
20: O=c1cc(CO)[nH]nc1CO
→ 1	3	1

The final 5 compounds of the part above come first, to join the parts:
The line under a structure holds: HIV Env fusion	MT1-MMP act inh	MT1-MMP act inh RFP
16: Cc1cccc(C(=O)Nc2cc(S(=O)(=O)N3CCOCC3)ccc2N2CCCC2)c1
→ 21	-6	0
17: CC(C)C1C(=O)N(Cc2cn(CCC3OCCO3)nn2)CCS(=O)(=O)N1Cc1ccc(-c2ccc(Cl)cc2)cc1 (configuration not stated)
→ ?	-3	-18
18: COc1ccc(C=O)c(-c2c(-c3ccccc3OC)sc3ccccc23)c1
→ 20	1	1
19: CC(C)(C)NC(=O)C(c1ccc(-c2ccccc2)cc1)n1c(=O)c(-c2cc3ccccc3[nH]2)nc2ccccc21 (configuration not stated)
→ -5	-14	-11
20: O=c1cc(CO)[nH]nc1CO
→ 1	3	1
21: CCOC(=O)[C@]12CCCC=C1N(Cc1ccc(Cl)cc1Cl)C(=O)[C@H](CC(=O)NCCCCc1ccccc1)C2
→ -8	-6	-11
22: CCCCn1nnnc1C(c1ccccc1)N1CCN(c2cccc(C)c2C)CC1 (configuration not stated)
→ 39	-7	-15
23: CCOc1cc(OCC)cc(C(=O)N2CCC[C@H]2C(=O)N2CCC[C@H]2C(=O)NCc2ccncc2)c1
→ -5	1	4
24: CCOC(=O)C1CCCN(C(=S)NC(=O)c2cc(Br)ccc2Cl)C1 (configuration not stated)
→ 7	7	2
25: CCOC(=O)C[C@@H]1OC[C@H](C)N1S(=O)(=O)c1ccc(C)cc1
→ -3	4	6
26: CC(C)C[C@@H](CN1CCC[C@H]1CN1C(=O)C(=O)NC[C@@H]1Cc1ccccc1)N1C[C@H](Cc2ccccc2)N(CC2CCCCC2)C(=O)C1=O
→ -13	-4	-16
27: Oc1ccc(Cl)c(CN2CCN(c3ncc(Cc4ccccc4)cn3)CC2)c1
→ 8	4	-9
28: COc1ccc(C2(OC)Oc3cc(OC)ccc3C(=O)C2(O)OC)cc1 (configuration not stated)
→ 4	-5	-1
29: O=C1NC[C@@H](CCCCN2C[C@H](Cc3ccc(O)cc3)N(CCc3ccccc3)C(=O)C2=O)N(CCc2ccc(O)cc2)C1=O
→ 2	0	4
30: CCCCCNC(=O)C(c1ccncc1)n1c(=O)c(-c2ccco2)nc2ccccc21 (configuration not stated)
→ -9	-5	4
31: COc1ccc(NC(=S)Nc2ccc(S(=O)(=O)N3CCCCC3)cc2)cc1
→ -3	2	-2
32: Cc1nc(NC(=O)C(C)(C)C)sc1C(=O)Cn1cc(-c2ccc(C(C)(C)C)cc2)nn1
→ -3	-6	2
33: CCCCOCCCNC(=O)C[C@@H]1C[C@@]2(C(=O)OC)CC(C)(C)CC=C2N(Cc2ccc3c(c2)OCO3)C1=O
→ -6	-3	-6
34: O=C1c2[nH]c3ccccc3c2CC1N1C(=O)c2ccccc2C1=O (configuration not stated)
→ -15	3	-1
35: CC(C)NC(=O)C1(C)CN(S(C)(=O)=O)CC(=O)N1CCc1ccc(O)cc1 (configuration not stated)
→ 19	2	3
36: CCN(C)C1CN(Cc2cn(Cc3ccc(Cl)cc3)nn2)S(=O)(=O)C1 (configuration not stated)
→ -6	4	9
37: O=C(O)CC1(CC(=O)O)Nc2ccccc2SC1=O
→ -72	2	-2
38: O=C1NC(=S)NC1=Cc1ccc2c(c1)CCC2
→ -133	-2	2
39: Oc1ccc(C=NNC(=S)Nc2cccnc2)nc1
→ 17	8	1
40: CC=Cc1cc2c(c(=O)o1)C(=O)C(O)C(C)O2 (configuration not stated)
→ -4	-6	-3

2 compounds from above, reduced to MT1-MMP act inh and HIV Env fusion.
no.	mol	MT1-MMP act inh	HIV Env fusion
14	CCOC(=O)[C@]12CCC=C1N(Cc1cccc3ccccc13)C(=O)[C@H](CC(=O)NCC1CCCCC1)C2	-4	-27
15	CCc1nc(SCC(=O)N2CCc3ccccc32)c2oc3ccccc3c2n1	2	2

(continued)
The line under a structure holds: HIV Env fusion	MT1-MMP act inh	MT1-MMP act inh RFP
41: COC(=O)C[C@H]1CC[C@@H](NC(=O)c2ccncc2)[C@@H](CO)O1
→ ?	1	5
42: Cc1cccc(C)c1N1C(=O)c2ccccc2NC(=O)C1C(=O)Nc1ccc2c(c1)OCCO2 (configuration not stated)
→ 14	1	5
43: Cc1ccc(S(=O)(=O)Nc2ccccc2N=Cc2ccc([N+](=O)[O-])cc2[N+](=O)[O-])cc1
→ -2	-1	-2
44: C[C@H]1CCC/C=C/[C@@H]2C[C@H](O)C[C@H]2[C@H](O)[C@H](S(=O)c2ccc(O)cc2)CC(=O)O1 (some centres not stated)
→ 48	0	-18
45: CCOC(=O)N1CCN(C(=O)C[C@@H]2C[C@@]3(C(=O)OC)CC(C)(C)CC=C3N(CCc3ccc(OC)c(OC)c3)C2=O)CC1
→ 16	5	4
46: CC1(C(=O)NCc2ccccc2)CN(S(C)(=O)=O)CC(=O)N1C1CCN(Cc2ccccc2)CC1 (configuration not stated)
→ 22	5	8
47: c1ccc2nc(NN=C3CCCCC3)ccc2c1
→ -49	-7	-1
48: Cc1ccc(CN2C(=O)c3ccccc3C2c2nnnn2-c2c(C)cccc2C)cc1 (configuration not stated)
→ 27	-8	-9
49: COC(=O)c1ccc2nc(-c3ccc(F)cc3)c(Cc3cccc(Cl)c3)n2c1
→ 1	0	-8
50: O=C(NCc1ccccc1)C1C(c2ccc3c(c2)OCO3)=Nc2ccccc2N1C(=O)c1cccc(C(F)(F)F)c1 (configuration not stated)
→ 15	-16	-18
51: O=C(Nc1ccn(CCCN2CCN(Cc3cccc4ccccc34)CC2)c(=O)n1)OCc1ccccc1
→ 25	3	-8
52: COC(=O)[C@@]1(Cc2ccc(F)cc2)[C@H]2c3cc(C(=O)N(C)C)n(CCCNc4ncc(C(F)(F)F)cc4Cl)c3C[C@H]2CN1C(=O)c1ccccc1
→ -10	-23	-25
53: O=c1[nH]c(-c2ccccc2)ncc1OCc1ccccc1
→ -124	2	2
54: C#CCNC(=O)C[C@@H]1C[C@@]2(C(=O)OCC)CCCC=C2N(Cc2ccc(Cl)cc2Cl)C1=O
→ -5	1	-4
55: Nc1nc(N)c(N=O)c(Nc2ccc(Cl)c(Cl)c2)n1
→ 9	-3	3
56: O=C(NC1CCCC1)C(c1ccccc1)n1c(CSCCOc2ccccc2)nc2ccccc21 (configuration not stated)
→ ?	2	1
57: O=C(CN1CCCC1c1ccc2c(c1)OCCO2)NC(=O)Nc1ccccc1F (configuration not stated)
→ -2	-9	-6
58: COc1cc2c(cc1OC)/C(=C/C(C)=O)OC2
→ -20	1	6
59: COc1cc(CN2C[C@@H](CO)O[C@@H](n3cnc4c(N5CCCC5)ncnc43)C2)cc(OC)c1OC
→ -3	1	1
60: Cc1cccc(C)c1NC(=O)C1(C)CN(S(C)(=O)=O)CC(=O)N1CCCn1ccnc1 (configuration not stated)
→ 0	-4	5

In the list so far, these contain a CF3 group.
The line under a structure holds: HIV Env fusion	MT1-MMP act inh	MT1-MMP act inh RFP
50: O=C(NCc1ccccc1)C1C(c2ccc3c(c2)OCO3)=Nc2ccccc2N1C(=O)c1cccc(C(F)(F)F)c1 (configuration not stated)
→ 15	-16	-18
52: COC(=O)[C@@]1(Cc2ccc(F)cc2)[C@H]2c3cc(C(=O)N(C)C)n(CCCNc4ncc(C(F)(F)F)cc4Cl)c3C[C@H]2CN1C(=O)c1ccccc1
→ -10	-23	-25

(continued)
The line under a structure holds: HIV Env fusion	MT1-MMP act inh	MT1-MMP act inh RFP
61: CCOC(=O)c1c(SCCN2CCCCC2)n(-c2ccccc2)c(=S)n(-c2ccccc2)c1=O
→ 26	-2	-2
62: Cc1cccc(C)c1-n1nnnc1C1c2ccccc2C(=O)N1CCc1ccccc1F (configuration not stated)
→ 44	1	0
63: COc1cccc(CNc2nc3cc(-c4ccccc4)sc3c(=O)n2C)c1
→ 63*	-6	-27
64: Cc1ccc(-n2c(C)cc(C=C3C(=O)N(C)C(=O)N(C)C3=O)c2C)cc1
→ -6	3	3
65: OC[C@@H]1CN(CCc2ccccc2)C[C@H](n2cnc3c(N4CCOCC4)ncnc32)O1
→ -20	3	4
66: Cc1cc([N+](=O)[O-])ccc1P(=O)(O)c1ccc([N+](=O)[O-])cc1C
→ 17	0	0
67: COc1ccc(-c2oc3c(c2C(=O)OCCO)C(OCCO)CCC3)cc1 (configuration not stated)
→ 11	6	3
68: O=C(c1cc2cc3ccc(Cl)cc3nc2o1)N1CCN(Cc2ccc3c(c2)OCO3)CC1
→ -8	-1	-12
69: Cc1cccc(C)c1N1C(=O)c2ccccc2NC(=O)C1C(=O)NCC(C)C (configuration not stated)
→ 12	3	8
70: CCCCn1cnc2c(c(CC#N)nn2-c2ccccc2)c1=N
→ -33	8	-7
71: Cc1cccc(C)c1-n1nnnc1C1c2ccccc2C(=O)N1CCCn1ccnc1 (configuration not stated)
→ -15	7	7
72: CC(C)(C)NC(=O)C(c1ccc(C#N)cc1)n1c(=O)c(-c2cc3ccccc3[nH]2)nc2ccccc21 (configuration not stated)
→ 21	-17	-18
73: Cc1cccc(C)c1NC(=O)C(CCc1ccccc1)n1c(=O)c(-c2ccccc2)nc2ccccc21 (configuration not stated)
→ -30	-25	-10
74: CC1(C(=O)NCc2ccccc2)CN(S(C)(=O)=O)CC(=O)N1CCc1ccccc1F (configuration not stated)
→ -1	4	5
75: N=C1N(c2ccccc2)C(=S)C(=Nc2ccccc2)N1c1ccccc1
→ -86	-2	-9
76: Cc1cccc(NC(=O)CN2CCN(CC(=O)NCC3(N4CCCCC4)CCCCC3)CC2)c1C
→ -8	-4	3
77: CCOC(=O)[C@]12CCCC=C1N(Cc1ccccc1)C(=O)[C@H](CC(=O)NCCCN1CCCC1=O)C2
→ 7	2	5
78: NC(CSC(c1ccccc1)(c1ccccc1)c1ccccc1)C(=O)O (configuration not stated)
→ -71	-1	-3
79: O=C(NN=Cc1ccc2c(c1)CCN2)c1cccs1
→ -421	4	3
80: CC(=NNC1=NCCN1)c1cnn(C2=NCCN2)c1C
→ 8	6	10
81: C#CCn1c2ccccc2c(=O)n1C(C)CBr (configuration not stated)
→ -12	5	5
82: C=CCC[C@@H](CCCCC)OC(=O)/C=C/[C@H](O)[C@@H](O)C[C@H](O)CC=C
→ 0	0	-7
83: COc1ccccc1C(=O)Cc1ccccc1
→ -33	1	3
84: COc1cc(-c2c(CCO)sc3ccccc23)cc(OC)c1OC
→ -65	0	-13
85: CCCCCc1c(-c2ccc(F)cc2F)ncn1CCc1ccccc1OC
→ 25	-3	-17
86: COc1ccc(C(C(=O)Nc2ccc(F)cc2)N2CCN(c3ccncc3)CC2)cc1 (configuration not stated)
→ -31	-2	0
87: CC(C)C[C@H]1CNC(=O)C(=O)N1C[C@H]1CCCN1C[C@H](CC(C)C)N1C[C@H](Cc2ccccc2)N(CC2CCCCC2)C(=O)C1=O
→ -24	3	4
